# Mtb H37Rv: M. tuberculosis H37Rv growth inhibitors, H37Rv strain (AID 1626) | inhibition, % at 10 µM, or IC50 in µM where a hit was titrated | M. tuberculosis H37Rv growth inhibition; higher % means a stronger effect | hit rate 0.95% among 220,000;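 active = confirmed in a dose series; inconclusive = inhibition above 80% but not taken into the dose series; inactive = below 80% or under 30% at every dose of the series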;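 note: bacteria incubated seven days before Alamar blue readout; 0% = bacteria only wells and 100% = bacteria with antibiotic wells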
# RecA splice inh: Mtb RecA intein splicing inhibition. P9WHJ3. cell-free RecA intein splicing, fluorescence. inhibition, %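 (about 9 µM by stock and volumes)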. hit rate 0.75% among 290,000; in the data active = inhibition above about 30%; inconclusive = no clear call, values can overlap the other calls;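 note: 0% = vehicle wells and 100% = reference inhibitor control wells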
# Target sequence (P9WHJ3 whole entry, looked up, canonical isoform): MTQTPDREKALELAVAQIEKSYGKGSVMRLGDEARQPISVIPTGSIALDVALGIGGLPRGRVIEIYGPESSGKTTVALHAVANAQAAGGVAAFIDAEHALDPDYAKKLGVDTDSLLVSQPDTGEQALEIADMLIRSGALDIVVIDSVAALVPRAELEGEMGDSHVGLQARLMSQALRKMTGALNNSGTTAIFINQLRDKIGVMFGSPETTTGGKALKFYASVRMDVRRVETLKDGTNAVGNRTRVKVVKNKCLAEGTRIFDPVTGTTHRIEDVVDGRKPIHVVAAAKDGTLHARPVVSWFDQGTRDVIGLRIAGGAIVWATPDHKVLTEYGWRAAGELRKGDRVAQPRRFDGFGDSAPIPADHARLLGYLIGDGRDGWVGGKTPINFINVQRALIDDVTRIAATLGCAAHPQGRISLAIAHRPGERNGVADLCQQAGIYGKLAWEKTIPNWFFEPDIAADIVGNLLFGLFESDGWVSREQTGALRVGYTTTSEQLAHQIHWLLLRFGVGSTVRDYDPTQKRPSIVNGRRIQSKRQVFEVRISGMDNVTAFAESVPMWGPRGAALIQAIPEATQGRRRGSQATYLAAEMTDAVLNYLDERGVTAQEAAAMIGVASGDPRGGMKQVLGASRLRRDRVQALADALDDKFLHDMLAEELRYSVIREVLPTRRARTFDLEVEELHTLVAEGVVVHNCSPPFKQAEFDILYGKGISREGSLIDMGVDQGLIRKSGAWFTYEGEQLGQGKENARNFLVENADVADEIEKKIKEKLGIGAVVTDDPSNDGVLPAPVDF
# Mtb bLac sens: beta-lactam sensitization of Mtb H37Rv; M. tuberculosis H37Rv growth with meropenem, percent inhibition; hits of this screen are not shown here; hit rate 0.27% among 330,000; AID 434955; inhibition, % at 25 µM;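 active = about 74% or more and at least 40 points above the plate without the antibiotic, then above 30% in a dose series; inconclusive = first-round hits that could not be retested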;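 note: growth measured after seven days incubation then overnight dye step; 0% = bacteria only wells and 100% = bacteria with antibiotic; twin plates without the antibiotic show which effects depend on it; some results filed as inactive read as strong as hits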
# Arbovirus inh: antivirals against arbovirus infection; arbovirus infection cell-based antiviral screen; inhibition, % at 10 µM; hit rate 0.37% among 200,000;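 active = inhibition from about 30%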;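 note: bluetongue infection of BSR cells; cell survival read as ATP light after 72 h; 0% = infected wells without compound and 100% = uninfected wells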
# YopH PTP inh: blocks Yersinia enterocolitica YopH tyrosine phosphatase; fluorescence Ex485/Em525; inhibition, %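 (about 10 µM by stock and volumes)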; hit rate 0.16% among 140,000;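 active = inhibition of 50% or more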;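 note: controls were vehicle for no effect and minimum signal wells for full effect; inactives centre near -20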
# Arbovirus inh repeat: also measured in Arbovirus inh; calls as there; inhibition, %; measured here: 10K subset replicate screen; many hits read low in the repeat;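 first of two repeat runs on a subset; 0% = infected and 100% = uninfected wells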
# Active calls of the source: *; ? = inconclusive; . = not tested or not shown; & = joins results of further samples. Not all compounds are listed; count on the stated rates, not on these rows.
# A first look:
SMILES,Mtb H37Rv,RecA splice inh,Mtb bLac sens,Arbovirus inh,YopH PTP inh,others
CCOc1ccc(NC(=O)C2CCCN(S(=O)(=O)c3c(C)nn(C)c3C)C2)cc1 (stereo not drawn),2%,2.5,-4,-3,-26,
Cc1ccc2cc3c(nc2c1)N(Cc1ccco1)CC3,5%,.,1,18,2,
O=C(CN1CCN(Cc2ccccc2)CC1)N/N=C/C=C/c1ccco1,.,-1.0,44,5,-25,
COc1ccc(NC(=O)Cn2c3ccccc3c3nc4n(c(=O)c32)CCS4)cc1,2%,3.6,-6,-4,.,
Cc1cccc(NC(=O)CSc2nccn2Cc2ccco2)c1,.,2.2,-17,.,.,
CCc1ccc(S(=O)(=O)NCCc2cn3ccccc3n2)s1,-5%,-2.5,-3,0,-18,
CC(C)(Oc1ccc(-c2ccco2)cc1)C(=O)O,-5%,-17,1,3,-29,Arbovirus inh repeat=2
CN1C(C(=O)N2CCC3(CC2)OCCO3)=CC(c2ccc(F)cc2)=NS1(=O)=O,.,1.0,-4,.,.,
COCCNC(=O)CN1c2ccccc2CC1C (stereo not drawn),-4%,-2.6,-5,2,-10,
CC(NC(=O)CCNS(=O)(=O)c1ccccc1)c1ccccc1 (stereo not drawn),.,-2.9,-1,.,.,
COc1ccc(/C(O)=C/Sc2nnc(Cc3ccccc3)o2)cc1,.,-0.2,99,-1,-17,
CCc1nnc(NC(=O)CSc2nnc(-c3cc4ccccc4cc3O)n2CCOC)s1,-6%,-8.6,14,5,-35,
Cc1cccc2sc(NC(=O)C3CCCN(S(=O)(=O)c4cccc5nonc45)C3)nc12 (stereo not drawn),17%,-1.0,-5,-5,-22,
COc1ccc(NC2=Nc3ccccc3N3C2=Nc2c(c(C)nn2-c2ccc(C)cc2)C3c2cccnc2)cc1 (stereo not drawn),?,-39,100,-9,-11,
CCOc1ccc(S(=O)(=O)NCCC(=O)OCN2C(=O)c3ccccc3C2=O)cc1,-3%,1.2,-7,4,-31,
O=C(NC1CCCCC1)c1ccc(N2CCCC2=O)cc1,0%,1.6,39,0,-41,
COC(=O)c1cn(C(=O)c2ccc(C)cc2)c2ccccc12,-1%,7.5,-1,-8,.,
CCOc1ccc(NC(=O)c2cc3ccccc3cc2OC)cc1,.,4.6,20,.,.,

# All compounds of this part, from the start:
SMILES,Mtb H37Rv,RecA splice inh,Mtb bLac sens,Arbovirus inh,YopH PTP inh,others
CCOc1ccc(NC(=O)C2CCCN(S(=O)(=O)c3c(C)nn(C)c3C)C2)cc1 (stereo not drawn),2%,2.5,-4,-3,-26,
Cc1ccc2cc3c(nc2c1)N(Cc1ccco1)CC3,5%,.,1,18,2,
O=C(CN1CCN(Cc2ccccc2)CC1)N/N=C/C=C/c1ccco1,.,-1.0,44,5,-25,
COc1ccc(NC(=O)Cn2c3ccccc3c3nc4n(c(=O)c32)CCS4)cc1,2%,3.6,-6,-4,.,
Cc1cccc(NC(=O)CSc2nccn2Cc2ccco2)c1,.,2.2,-17,.,.,
CCc1ccc(S(=O)(=O)NCCc2cn3ccccc3n2)s1,-5%,-2.5,-3,0,-18,
CC(C)(Oc1ccc(-c2ccco2)cc1)C(=O)O,-5%,-17,1,3,-29,Arbovirus inh repeat=2
CN1C(C(=O)N2CCC3(CC2)OCCO3)=CC(c2ccc(F)cc2)=NS1(=O)=O,.,1.0,-4,.,.,
COCCNC(=O)CN1c2ccccc2CC1C (stereo not drawn),-4%,-2.6,-5,2,-10,
CC(NC(=O)CCNS(=O)(=O)c1ccccc1)c1ccccc1 (stereo not drawn),.,-2.9,-1,.,.,
COc1ccc(/C(O)=C/Sc2nnc(Cc3ccccc3)o2)cc1,.,-0.2,99,-1,-17,
CCc1nnc(NC(=O)CSc2nnc(-c3cc4ccccc4cc3O)n2CCOC)s1,-6%,-8.6,14,5,-35,
Cc1cccc2sc(NC(=O)C3CCCN(S(=O)(=O)c4cccc5nonc45)C3)nc12 (stereo not drawn),17%,-1.0,-5,-5,-22,
COc1ccc(NC2=Nc3ccccc3N3C2=Nc2c(c(C)nn2-c2ccc(C)cc2)C3c2cccnc2)cc1 (stereo not drawn),?,-39,100,-9,-11,
CCOc1ccc(S(=O)(=O)NCCC(=O)OCN2C(=O)c3ccccc3C2=O)cc1,-3%,1.2,-7,4,-31,
O=C(NC1CCCCC1)c1ccc(N2CCCC2=O)cc1,0%,1.6,39,0,-41,
COC(=O)c1cn(C(=O)c2ccc(C)cc2)c2ccccc12,-1%,7.5,-1,-8,.,
CCOc1ccc(NC(=O)c2cc3ccccc3cc2OC)cc1,.,4.6,20,.,.,
CCN(CC)c1ccc(NC(=O)Nc2cccc(C(C)=O)c2)cc1,2%,-6.2,-3,-14,10,
COc1cccc(C(=O)Nc2ccc(C(=O)NCC3CCCO3)cc2)c1 (stereo not drawn),.,5.2,2,.,.,
CC(=O)N1c2c(cc(Br)cc2S(=O)(=O)N2CCN(C(=O)c3ccco3)CC2)CC1C (stereo not drawn),-2%,3.2,0,4,-3,
Cc1nc(NC(=O)C2CCCC2)sc1Cc1ccc2c(c1)OCO2,0%,.,3,0,-36,
Cc1cc2nc(C)n(CCCNC(=O)Nc3cccc4ccccc34)c2cc1C,1%,1.1,4,9,-22,
COc1cc(CNn2nnnc2N)ccc1OCC(=O)NC(C)(C)C,-21%,.,10,3,-11,
CCOc1ccc2c(c1)c(N=Nc1cccc(C(=O)O)c1)c(O)n2C,-3%,7.1,-4,0,-26,

# 3 entries already listed, ordered by count of non-hydrogen atoms, low to high.
SMILES,Mtb H37Rv,RecA splice inh,Mtb bLac sens,Arbovirus inh,YopH PTP inh,others
COCCNC(=O)CN1c2ccccc2CC1C (stereo not drawn),-4%,-2.6,-5,2,-10,
O=C(NC1CCCCC1)c1ccc(N2CCCC2=O)cc1,0%,1.6,39,0,-41,
Cc1cc2nc(C)n(CCCNC(=O)Nc3cccc4ccccc34)c2cc1C,1%,1.1,4,9,-22,

# Further results follow:
SMILES,Mtb H37Rv,RecA splice inh,Mtb bLac sens,Arbovirus inh,YopH PTP inh,others
O=C(Nc1cccc(NC(=O)c2ccccc2Cl)c1)c1ccco1,.,0.8,0,.,.,
O=S(=O)(Nc1ccc(Cc2ccncc2)cc1)c1ccc(Cl)s1,6%,4.1,3,-14,-20,
Cc1ccc(C(=O)n2cnc3ccccc32)cc1C,.,36*,0,.,.,
COC(=O)c1cc(NCc2c(F)cccc2Cl)ccc1N1CCOCC1,-2%,-3.8,-7,-1,-46,
O=C(NC(C(=O)O)c1ccccc1)c1ccc(S(=O)(=O)N2CCOCC2)cc1 (stereo not drawn),-3%,0.7,-1,-1,50*,
C=CCc1cccc2cc(C(=O)Nc3ccc(NC(C)=O)cc3)c(=O)oc12,2%,-2.1,2,2,.,
Fc1ccc(Br)cc1SCCc1ccncc1,.,-2.8,2,.,.,
COC(CNC(=O)C(=O)Nc1ccc2c(c1)N(S(=O)(=O)c1cccs1)CCC2)OC,.,0.0,5,.,.,
O=C(NCc1cccnc1)c1ccc(COc2ccccc2Cl)cc1,7%,3.2,27,3,.,
COC(C[C@@H](O)[C@@H](C)[C@H](O)COCc1ccccc1)OC,-5%,1.7,.,.,.,
O=C(NC(=S)Nn1cnnc1)c1ccccc1Cl,1%,-1.7,2,2,.,
CCn1nnnc1SCC(=O)N(C1CCCCC1)C1CCCCC1,4%,2.7,-6,6,-49,
Cc1nc2ccc(NC(=O)c3ccco3)cc2s1,6%,2.0,27,-13,.,
COc1ccc(CNCCC(c2ccc(OC(C)C)cc2)C(C)C)cc1OC (stereo not drawn),45%,8.5,78,-46,-7,
O=C1CCCC2=C1C(c1cccs1)n1nc(SCc3ccccc3F)nc1N2 (stereo not drawn),0%,-1.8,-3,-6,-14,Arbovirus inh repeat=1
OC(CCN1CCOCC1)(c1ccc(Cl)cc1)C1CCCCC1 (stereo not drawn),1%,2.7,-3,-2,13,
CCS(=O)(=O)N1CCC(C(=O)NCCc2ccc(OC)c(OC)c2)CC1,-1%,-1.3,-1,5,-22,
CCCn1nc(C(=O)NNC(=O)c2cccc(S(=O)(=O)NC(C)C)c2)c2ccccc2c1=O,.,3.6,-33,.,.,
C=CCSc1nc2c(c(=O)n(C)c(=O)n2C)n1CC,4%,-3.8,-8,10,-16,
N#Cc1ccc(N2Cc3ccccc3C2=NC(=O)c2cccnc2Cl)cc1,1%,-0.4,2,-2,-13,
O=c1[nH]c(=O)n(CCc2ccccc2)c(O)c1C=NC1CC1,-3%,-1.4,-4,.,.,
C=CCn1c(CC#N)nnc1N1CCOCC1,-3%,1.3,-5,3,-27,
CCOc1ccccc1N(CC(=O)N1CCOCC1)S(=O)(=O)c1ccc(SC)cc1,-1%,1.1,.,8,-13,
O=C(CN1CCOCC1)N1CCN(S(=O)(=O)c2ccccc2)C1c1ccccc1 (stereo not drawn),-15%,0.5,-9,1,-29,
Cc1onc(-c2ccccc2Cl)c1C(=O)NNC(=O)C1CCN(Cc2ccccc2)CC1,4%,-2.5,-1,2,.,

# Next part.
SMILES,Mtb H37Rv,RecA splice inh,Mtb bLac sens,Arbovirus inh,YopH PTP inh,others
O=C(Nc1ccc(SC(F)F)cc1)c1cccc2nc3ccccc3nc12,35%,-1.6,62,-12,-4,
Cc1cc(NC(=O)c2cccc(S(=O)(=O)N3c4ccccc4CC3C)c2)no1 (stereo not drawn),-4%,-0.3,-12,.,.,
O=C(CN(Cc1ccccc1F)C(=O)c1ccco1)NCc1ccc(F)cc1,0%,2.0,-2,-2,-48,
Cc1cc(NC(=O)CSc2nc3c(cc2C#N)CCC3)no1,.,-3.4,8,.,.,
CCSc1oc(-c2ccco2)nc1S(=O)(=O)c1ccccc1,-3%,4.8,9,1,17,Arbovirus inh repeat=7
CCc1cc(=O)oc2cc(OC(C)C(=O)O)c(Cl)cc12 (stereo not drawn),-1%,-0.7,-8,-1,-23,
CCC(C)(O)c1[nH]c2ccc(C#N)cc2c1C (stereo not drawn),.,-3.1,-8,.,.,
CC(=O)OCc1cc2cc(C)ccc2[nH]c1=O,-2%,-1.3,-7,8,-45,
Cn1c(=N)n(CC(O)c2cccc3ccccc23)c2ccccc21 (stereo not drawn),27%,1.5,-4,-8,-59,
CN1C(C(=O)Nc2ccccn2)=C(O)c2ccccc2S1(=O)=O,-11%&-11%&4%,1.1&2.7,0&4,13&0,-37,
COCCCN=Cc1c(O)[nH]c(=S)[nH]c1=O,.,-1.7,3,3,.,
COC(=O)[C@H]1[C@@H](C)N(Cc2ccccc2)C(=O)N[C@H]1c1ccccc1,-4%,-0.5,-7,.,.,
CC1CCCCC1NC(=O)COC(=O)c1ccccn1 (stereo not drawn),6%,2.1,-3,0,-3,
COc1ccc(C(C(=O)NC(C)(C)C)N(C(=O)CNC(=O)c2cccs2)c2cccnc2)cc1OC (stereo not drawn),.,-4.3,-14,.,.,
O=C(Cn1cnc2c(nnn2Cc2ccccc2F)c1=O)N1CCN(c2ccccc2)CC1,-15%,0.8,-1,-26,33,
Cc1ccc(OCCNC(=O)C2CC(=O)N(c3ccc(C)cc3)C2)cc1 (stereo not drawn),-2%,-0.3,5,11,-11,
COC(=O)Cc1c(O)ccn(Cc2ccc(Cl)c(Cl)c2)c1=O,-1%,2.1,0,12,.,
CCCCCC(=O)Nc1ccc2oc(-c3ccncc3)nc2c1,-14%,0.6,71,-2,-39,
CC(=O)NCCc1nc2ccccc2[nH]1,-2%,1.8,-7,4,5,Arbovirus inh repeat=-1
COc1ccc(CNc2nc(NCc3ccc(OC)cc3)n(S(C)(=O)=O)n2)cc1,2%,-1.2,-2,2,3,
COCC(=O)Nc1c(C(=O)Nc2ccccc2OC)oc2ccccc12,4%,-1.9,-6,-14,9,
Cc1[nH]n(C)c(=O)c1N=Nc1ccc(S(C)(=O)=O)cc1,-7%,3.0,-2,.,.,
CN(CCCCN1CCOCC1)Cc1nc(-c2ccc3c(c2)OCO3)no1,6%,-0.7,-6,-4,.,
Cc1c(Cl)cccc1S(=O)(=O)N1CCC(C(=O)NNC(=O)C2CC2)CC1,1%,0.1,-10,2,.,
Cc1ccc(C(=O)NC(C)C(c2cccs2)N2CCCC2)s1 (stereo not drawn),3%,1.5,2,4,.,
CCCN1C(=O)c2ccccc2NC1c1ccc(Br)cc1 (stereo not drawn),.,4.1,-4,.,.,
CC1(C)C(=O)Nc2ccccc2N1C(=O)CSc1ncccn1,4%,-1.5,0,4,.,
CCCc1nc2n[nH]c(N)c2c2c1CCC2,2%,-2.6,0,12,-13,Arbovirus inh repeat=7
O=C1Cc2cc(CCN3CCN(c4nsc5ccccc45)CC3)c(Cl)cc2N1,3%,.,.,3,.,
Cc1ccccc1CSCC(=O)NC1CCCC1,4%,2.1,-1,-9,-17,
